High-throughput results as filed in PubChem BioAssay.
StopGo RLuc: Primary qHTS Assay for Foot and Mouth Disease Virus Antivirals against NCGC Sytravon and CBC Compound Libraries: Renilla Luciferase Signal; HEK cells with a luciferase reporter of 2A StopGo recoding; Potency, µM (highest dose often 57.5 µM), without a hit: top-dose signal change, negative = less light; 120,000 tested, 0.32% active; AID 1745857, 2022; active means well fitted falling curve with a large enough effect; inconclusive means small, poorly fitted or top-dose-only effect; inactive means no such curve, though single readings can be large or run the other way; further: nearly all actives have a fitted effect of over 55% in size; overnight with compound
2A firefly: Primary qHTS Assay for Foot and Mouth Disease Virus Antivirals against NCGC Sytravon and CBC Compound Libraries: Firefly Luciferase Signal. HEK cells with a luciferase reporter of 2A StopGo recoding. 120,000 tested, 0.23% active. Potency, µM (top dose mostly 57.5 µM), for inactives: at the top dose signal change, negative = less light; active = well fitted falling curve with a large enough effect; inconclusive = small, poorly fitted or top-dose-only effect; inactive = no such curve, though single readings can be large or run the other way; further: nearly all actives have a fitted effect of over 60% in size; overnight with compound
Starred values were filed as active, the others as inactive; u = inconclusive; [ ] = another dose, or the depositor's remark. On the % scale 0 is the no-effect control and ±100 the full control effect; potency means the concentration at half of the fitted maximal effect. Some of the compounds tested. The share of hits here may be higher or lower than overall.

SMILES	StopGo RLuc	2A firefly
CCc1cc(=O)oc2c(C)c(OC(C)C(=O)NCCCN3CCOCC3)ccc12 (centres undefined)	-12.2%	-3.8%
COc1ccc(NC(=O)C2CCN(S(=O)(=O)c3cn(C)cn3)CC2)cc1Cl	-4.2%	-8.4%
COc1ccc(-c2cc(C(F)(F)F)n3nc(C(=O)Nc4cc(C(F)(F)F)ccc4Cl)cc3n2)cc1OC	-1.7%	-14.6%
Cc1cc(C)cc(N(C)C(=O)C2CCN(c3oc(-c4ccco4)nc3C#N)CC2)c1	-1.8%	-12.8%
COc1cccc(N2CCN(C(=O)C3CCN(S(=O)(=O)c4cn(C)cn4)CC3)CC2)c1	4.8%	10.4%
Cc1ccccc1CN(C)C(=O)CN1CCCC1c1ccc2c(c1)OCCCO2 (centres undefined)	0.0%	-7.7%
CC(NC(=O)c1ccc2c(c1)sc1nc(-c3ccc(F)cc3)cn12)c1ccccc1 (centres undefined)	-3.1%	0.0%
Cc1cc(C)c(NS(=O)(=O)c2ccc(N3C(=O)CCS3(=O)=O)cc2C)c(Cl)c1	3.1%	2.9%
COc1ccccc1CNC(=O)CCc1nnc2ccc(NCc3ccco3)nn12	-10.7%	-9.2%
CCOc1ccccc1NC(=O)Cn1nnc(C(=O)Nc2ccc(C)c(C)c2)c1N	14.7%	39.3%[activator]
Cc1ccc(NC(=O)CSC2CCCC2)c(Br)c1	30.2%[activator]	1.3%
Cc1ccc(S(=O)(=O)C(CNS(=O)(=O)c2ccc(F)c(C(F)(F)F)c2)c2ccco2)cc1 (centres undefined)	326.8%[activator]	-11.4%
CCc1ccc(OCC(=O)Nc2ccc3c(c2)c2ccccc2n3CC)c(Br)c1	-16.1%	-11.2%
Cc1c(C(=O)N2CCCC2)oc2c1-c1nn(CC(=O)NCc3cccc(F)c3)cc1CC2	30.1%[activator]	-4.0%
NS(=O)(=O)Cc1cccc(C(=O)O)c1	-7.4%	-1.4%
Cc1cc(C)cc(NC(=O)CCNC(=O)C2CCCC2)c1	3.8%	8.1%
COc1ccc(Nc2nc3ccccc3nc2NS(=O)(=O)c2ccc(OC)cc2)cc1	284.3%[activator]	40.2%[activator]
CCCCOC(=O)COc1ccc2c(=O)c(Oc3cccc(C)c3)coc2c1	-13.3%	-10.1%
COc1ccc(CCNC(=O)CSCc2cnn(-c3ccccc3)c2-n2cccc2)c(OC)c1	9.1%	-24.5%
CN(C)C(=O)CN(C)c1nc(-c2ccccc2)c2ccccc2n1	-2.3%	0.2%
COc1ccccc1-c1cc(C(=O)O)c2cc(C)cc(C)c2n1	-7.6%	-6.3%
CCOCCCNc1oc(-c2cccc3ccccc23)nc1C#N	21.6%	202.8%[activator]
COc1ccc(NC(=O)c2cc3c(=O)n(Cc4cccnc4)ccc3nc2C)cc1OC	1.4%	-11.9%
O=C(Cn1c(-c2cccs2)cc2cc(Cl)ccc21)N1CCN(c2ccccc2F)CC1	-2.6%	-12.6%
Cc1cccc(CC2CC(=O)N(c3ccc4ccccc4n3)C2=O)c1 (centres undefined)	-1.3%	10.9%
O=C(CS(=O)(=O)c1nc(-c2ccc(Cl)cc2)cn1-c1ccccc1)Nc1cccc(Cl)c1	23.7%	2.1%
O=C(c1ccc(Cn2cncn2)cc1)N1CCN(c2ccccc2F)CC1	15.0%	12.9%
CCc1ccc(S(=O)(=O)c2cn(Cc3ccc(OC)cc3)c3cc(OC)c(OC)cc3c2=O)cc1	9.7%	-14.8%
COc1ccc(C)cc1NC(=O)CCn1nc(C)cc1C	-11.0%	-12.8%
COc1ccc(C(=O)c2sc(Nc3ccccc3OC)nc2N)cc1	14.1%	0.0%
CN(C(=O)c1ccc(C(C)(C)C)cc1)c1c(F)cccc1F	28.1%	0.0%
COc1cc(Cl)c(C)cc1NC(=O)CCc1nc2cccnc2n1Cc1cccs1	u	-12.8%
Cc1cccc(Cc2cnc(NC(=O)c3n[nH]c(=O)c4ccccc34)s2)c1Cl	-3.7%	-0.7%
COc1cc(C=O)cc(Br)c1OCc1cccc(C)c1	5.8%	25.4%
CN(CCOc1ccccc1)Cc1nc(N)nc(N(C)C)n1	-9.3%	6.5%
COc1cc(C2C(C#N)=C(N)Oc3n[nH]c(-c4ccccc4)c32)cc(OC)c1OC (centres undefined)	-4.3%	0.2%
CC(C)Cc1nc(NCc2cccnc2)c(C#N)c2c1CCCC2	-1.5%	-4.2%
O=CC1=Cc2c(ccc3ccccc23)OC1	u	5.9%
Cc1cccc(C(=O)Nc2ccc(C3(C(=O)NCCC(C)C)CCCCC3)cc2)c1	17.2%	39.1%[activator]
CCN(C(=O)C1CCCN(c2ncnc3c2nc2n3CCCCC2)C1)c1cccc(C)c1 (centres undefined)	-26.5%	u

Part of the list above, with values under each structure:
Values run as follows: StopGo RLuc | 2A firefly
- CC(C)Cc1nc(NCc2cccnc2)c(C#N)c2c1CCCC2
    -1.5% | -4.2%
- O=CC1=Cc2c(ccc3ccccc23)OC1
    u | 5.9%
- Cc1cccc(C(=O)Nc2ccc(C3(C(=O)NCCC(C)C)CCCCC3)cc2)c1
    17.2% | 39.1%[activator]
- CCN(C(=O)C1CCCN(c2ncnc3c2nc2n3CCCCC2)C1)c1cccc(C)c1 (centres undefined)
    -26.5% | u

More compounds follow.
SMILES	StopGo RLuc	2A firefly
Cc1ccc(CCNC(=O)c2cc3c(=O)n(C)c4ccccc4c3n2C)cc1	-14.2%	-30.0%
Cc1ccc(Cn2c(N3CCC(C(=O)N4CCC(C(N)=O)CC4)CC3)nc3ccccc32)cc1	5.4%	-2.7%
O=C(Cn1cc(S(=O)(=O)Cc2cccc(Cl)c2)c2ccccc21)NCc1ccccc1Cl	47.0%[activator]	29.5%
O=C(Nc1sc2c(c1C(=O)O)CCCCC2)c1ccco1	-27.5%	55.9%[activator]
O=C(NCCc1c[nH]c2ccccc12)C12CC3CC(CC(C3)C1)C2	0.0%	0.0%
COc1ccccc1CNC(=O)C12CCC(=O)N1CCS2 (centres undefined)	-8.6%	-1.3%
CCN(CC)CCCN(C/C=C/c1ccccc1)C/C=C/c1ccccc1	0.4%[1.06 µM]	-17.1%
CC(C)Oc1ccc(CNC(=O)CN2C(=O)c3cccnc3Oc3ccc(Cl)cc32)cc1	76.3%[activator]	20.0%
Fc1ccccc1C1NCc2ccccc2-n2cccc21 (centres undefined)	u	-9.5%
COc1ccc(-c2[nH]c(-c3ccc(F)cc3)nc2SCC(=O)Nc2ccc(OC)c(OC)c2)cc1	56.2%[activator]	0.4%
CCOC(=O)c1cc(-c2ccccc2)n(-c2cccc(C(=O)Nc3ccc(F)c(F)c3)c2)c1C	-21.5%	-17.1%
COc1cc(OC)cc(C(=O)N2CCC(c3ccncc3)CC2)c1	79.8%[activator]	-6.0%
Cc1ccc(-n2nc(C(=O)N3CCN(c4cc(Cl)ccc4C)CC3)c3c4ccccc4n(C)c3c2=O)cc1	-11.4%	-8.3%
CSC1=N/C(=C\c2ccc(OC(C)=O)cc2)C(=O)S1	0.4%	16.6%
COc1ccc(Cl)cc1NC(=O)Cn1ncc2ccc(OC)c(OC)c2c1=O	2.0%	10.1%
Cc1c(OS(=O)(=O)c2cccs2)ccc2c(-c3ccccc3)cc(=O)oc12	2.3%[1.06 µM]	20.5%
COc1ccc(-c2nnc3ccc(Nc4ccc(Cl)cc4)nn23)cc1	-0.8%	5.4%
CCOc1ccc(N2CC(NC(=O)CCc3ccccc3)CC2=O)cc1 (centres undefined)	-4.2%	-9.0%
CCOC(=O)c1ccc(Oc2c(C(F)(F)F)oc3cc(OS(C)(=O)=O)ccc3c2=O)cc1	u	-49.7%
CCN(C(=O)CCS(=O)(=O)c1ccc2c(c1)CCN2C(C)=O)c1cccc(C(F)(F)F)c1	-13.3%	-20.2%

Entries of single compounds as entered above. Order of values: StopGo RLuc, 2A firefly
`CCN(C(=O)C1CCCN(c2ncnc3c2nc2n3CCCCC2)C1)c1cccc(C)c1` (centres undefined) as listed: -26.5%, u
`O=C(CS(=O)(=O)c1nc(-c2ccc(Cl)cc2)cn1-c1ccccc1)Nc1cccc(Cl)c1` as listed: 23.7%, 2.1%
`COc1cc(C=O)cc(Br)c1OCc1cccc(C)c1` as listed: 5.8%, 25.4%
`O=C(c1ccc(Cn2cncn2)cc1)N1CCN(c2ccccc2F)CC1` as listed: 15.0%, 12.9%
`COc1ccc(NC(=O)C2CCN(S(=O)(=O)c3cn(C)cn3)CC2)cc1Cl` as listed: -4.2%, -8.4%

Additional entries
SMILES	StopGo RLuc	2A firefly
COc1cc(OC)c(C2SCCN2S(=O)(=O)c2ccc(C)cc2)cc1OC (centres undefined)	u	u
Cc1cccc(N(C)C(=O)c2cc3c(=O)oc4ccc(C)cc4c3s2)c1	-9.7%	-8.0%
CCCOc1cccc(-c2cc(C(=O)O)c3cc(C)ccc3n2)c1	u	10.9%
CC(=O)N1CCCc2cc(S(=O)(=O)N(C)CC(=O)Nc3ccc(C(C)C)cc3)ccc21	-5.0%	-26.7%
O=C(NCc1ccc(F)cc1)C(=O)NCC(c1ccco1)S(=O)(=O)c1cccs1 (centres undefined)	-6.8%	-16.8%
CNC(=O)C1CN(C(=O)CCc2ncc(-c3ccccc3)o2)c2ccccc2O1 (centres undefined)	1.5%	0.0%
CCC(C)NC(=O)CCCn1c(=O)c2cccn2c2ccccc21 (centres undefined)	6.5%	78.5%[activator]
Cc1ccc(N2CC(NC(=O)Cc3cccs3)CC2=O)cc1C (centres undefined)	-3.1%	-17.4%
Cn1cc(C(=O)NCC(=O)NC(C)(C)C)c2ccccc21	-9.9%	-6.9%
O=C(CCc1c[nH]c2ccccc12)NCc1cccs1	40.4%[activator]	30.7%[activator]
COc1cc(C(=O)Nc2ccc3nc(SCc4ccccc4)sc3c2)cc(OC)c1OC	-8.7%	-7.7%
CCCCCC(N)=O	-8.2%	0.0%[11.5 µM]
CCCn1ccnc1SCC(=O)Nc1sc2c(c1C#N)CCCC2	10.2%	29.2%
COc1ccc(-c2noc(C3CC(=O)N(c4ccc(C)c(F)c4)C3)n2)c(OC)c1 (centres undefined)	3.5%	-4.9%
COCCNC(=O)c1ccc(-n2c(-c3ccccc3)cc3c2CCC(C)C3)cc1 (centres undefined)	21.9%	39.2%[activator]
COc1cc(/C=C(\C#N)C(=O)c2ccc(C)cc2)ccc1OCc1ccc(Cl)cc1Cl	0.2%	136.1%[activator]
CCn1ccc2cc(S(=O)(=O)N3CCCN(C(=O)Nc4ccccc4OC)CC3)ccc21	45.9%[activator]	15.9%
CCOc1ccc(NC(=O)CSc2nc3ccccc3nc2N2CCC(C)CC2)cc1	3.7%	7.4%
CCCOc1ccc(CNC(=O)C2CCN(c3nnc(N4CCCC4=O)s3)CC2)cc1	-3.8%	-2.1%
COCCn1cnnc1SCc1cccc(C(F)(F)F)c1	16.9%	17.5%
Cc1ccc(S(=O)(=O)N2CCN(C(=O)Cc3ccccc3)CC2)cc1	-8.3%	-10.6%
CCCCCOC(=O)CSc1nc2sc3c(c2c(=O)n1Cc1ccccc1)CC(C)(CC)OC3 (centres undefined)	-14.1%	-19.3%
O=c1cc(-c2cc3ccccc3o2)c2cc(O)ccc2o1	0.0%	0.2%
Cn1nc(C(=O)Nc2ccc(F)c(F)c2F)c2ccccc2c1=O	-6.0%	11.4%
Cc1ccccc1C(=O)Nc1ccccc1C(=O)OCc1cc(=O)n2nc(C3CC3)sc2n1	6.6%	23.2%
Cc1[nH]c2ccc(C(=O)N3CCC(C(=O)N4CCCC4)CC3)cc2c1C	-3.2%	-0.8%
CC(C)c1ccc(S(=O)(=O)N2CCN(CC(=O)Nc3ccccc3C(F)(F)F)CC2)cc1	4.0%	-13.5%
O=C(COC(=O)C1CCOCC1)c1ccc[nH]1	-4.6%	-1.4%
CCn1c(=O)c2cc(C(=O)Nc3cccc(C(F)(F)F)c3)sc2c2ccccc21	-8.7%	-17.3%
S=c1[nH]c2cc(C34CC5CC(CC(C5)C3)C4)ccc2o1	2.2%[1.06 µM]	24.3%
CCCCCCSc1nc2c(c(=O)[nH]c(=O)n2C)n1CC(O)COc1ccc(Cl)cc1 (centres undefined)	8.1%	10.8%
CCn1ccc2cc(S(=O)(=O)N3CCCN(C(=O)NCC(C)C)CC3)ccc21	3.5%	18.7%
Cc1ccc(Nc2nc(N(C)C)nc3nccnc23)c(C)c1	-1.7%	12.2%
COc1ccccc1NC(=O)Cn1cnc2c(nc3n2CCCCC3)c1=O	-6.9%	-5.2%
O=C(C1CCC(Cn2c(=O)c3sccc3n(Cc3ccccc3F)c2=O)CC1)N1CCOCC1 (centres undefined)	-4.1%	-6.3%
CCCCOC(=O)c1cccc(NC(=O)c2cc3ccccc3o2)c1	-12.9%	8.91µM*
Cc1ccc2nc(N3CCN(c4cccc(C(F)(F)F)c4)CC3)c3nnnn3c2c1	-1.3%	-3.4%
COc1ccccc1NC(=O)CSC1=Nc2ccccc2N=C(c2ccc(F)cc2)C1	-5.5%	3.7%
O=c1c(S(=O)(=O)c2cccc(Cl)c2)cn(Cc2ccccc2)c2cc(N3CCCCC3)c(F)cc12	-0.1%	-2.0%
C/C(=N\O)c1ccc(OCCOc2ccc(/C(C)=N/O)cc2)cc1	3.5%	-0.4%
Cc1ccccc1C(=O)OC(C)C(=O)c1ccc2c(c1)CCC2 (centres undefined)	8.3%	10.0%
CCC(CC)NC(=O)/C=C/c1ccccc1	1.6%	24.9%
N#CCC(=O)Nc1ccc(C(=O)OCc2ccccc2Cl)cc1	38.8%[activator]	101.1%[activator]
CN1C(=O)Cc2cc(-c3csc(-c4ccc(F)cc4)n3)ccc21	-8.4%	158.8%[activator]
